# Bead autofluor – counter-screen for toxin protease inhibitors: compound fluorescence. compound autofluorescence counterscreen, microsphere flow cytometry; stronger effect = higher value. AID 624483. fluorescence intensity (test concentration not listed). actives 3.1% (n = 360,000);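 active means at least 3 SD above the mean of all compounds, about 16000 in these data; inconclusive means too few beads counted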;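 further: 100 nL of 1 mM stock went into each well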
# BJeLR viability – kills HRASV12-expressing BJeLR cells; actives 0.17% (n = 300,000); BJeLR (HRASV12) viability, CellTiter-Glo ATP luminescence, 48 h; reference of the scale not given here; inhibition, % (concentration not given with the values);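 active means replicate mean above 50%; inconclusive means above 50% but judged a plate artefact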;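 further: 50 nL library stock added to about 25 µL; numbers are from one replicate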
# PrP UTR inh – suppresses PrP 5' UTR mRNA reporter expression; AID 488862; actives 0.35% (n = 340,000); cell-based PrP 5' UTR mRNA reporter, plate reader; inhibition, % (concentration not given with the values);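 active means every replicate at 50% or more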;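 further: 0 = median of the neutral control wells; tested in H4 reporter cells; numbers are from one replicate; inactives centre near -14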
# Mtb hypoxia inh – reduces hypoxia-regulated biosensor signal in M. tuberculosis; fluorescence inhibition, % (no concentration beside the values); M. tuberculosis hypoxia-regulated fluorescent reporter, fluorescence; AID 1159583; actives 0.1% (n = 300,000);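 active means 35 to 45% if threefold the growth effect, above 45% if 1.5-fold the growth effect; inactive means the rest, general growth blockers included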;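 further: wells of about 50 µL received 100 nL stock; 0% = vehicle wells and 100% = reference inhibitor wells; whole bacteria with a GFP reporter of the hypoxia response; strong numbers were not always called active; many hits fall short of the cut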
# RN4220 kill – kills Staphylococcus aureus RN4220; S. aureus RN4220 growth, OD600, 16 h; inhibition, % (test concentration not listed); actives 0.33% (n = 330,000);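 active means z-score of -3 or lower and OD600 up to 0.18 on both plates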;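 further: plate controls were untreated cells for no effect and reference antibiotic for full effect; stock transfer was 100 nL into about 80 µL; one replicate is shown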
# ugtP null kill – growth inhibition of S. aureus ugtP deletion strain; AID 1259309; actives 0.54% (n = 330,000); growth inhibition, % (no concentration beside the values); S. aureus RN4220 ugtP deletion, OD600 growth, 16 h; some inactives read as strong as hits;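 active means z-score under -3 and OD600 up to 0.15 on both plates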;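 further: plate controls were untreated wells for no effect and antibiotic for full effect; wells of about 80 µL received 100 nL stock; the first replicate is given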
# Mtb hypoxia inh growth – second read-out of Mtb hypoxia inh, no call of its own (marks repeat the call); growth inhibition, %; measured here: M. tuberculosis growth (absorbance);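 0% = vehicle and 100% = reference antibiotic; read after six days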
# * hit, by the source's call; ? = inconclusive; / = no result given.
SMILES,Bead autofluor,BJeLR viability,PrP UTR inh,Mtb hypoxia inh,Mtb hypoxia inh growth,RN4220 kill,ugtP null kill
COc1ccccc1OCCn1cc(C(=O)c2ccco2)c2ccccc21,9753,5,-10,14,15,0.9,-14
O=C1Cn2c(nc3ccccc32)N1c1ccccc1F,4935,12,-9,10,5,4.8,0
c1cc2ccc3ccc(-n4cnnn4)c4ccc(c1)c2c34,3942,-1,-16,/,/,14,-1
CCOC(=O)c1cccc(Nc2ncnc3ccc(C)cc23)c1,2200,2,-1,/,/,5.6,-8
CC(CC(C)C)=NOc1nc(C)cc(C)n1,/,/,/,11,1,2.1,6
N/C(=N\OC(=O)CCCOc1ccc(Cl)cc1Cl)c1ccncc1,3741,-1,5,11,12,-1.9,2
Cc1ccc(C)c(OCC(O)CN2CCC(C)CC2)c1C (stereo unspecified),5020,1,-12,/,/,-1.3,2
CN(C)S(=O)(=O)Nc1cccc(-c2cn3c(n2)SCC3)c1,5720,-2,-20,1,-3,1.2,3
NC(=O)C1(N2CCCCC2)CCN(C(=O)c2cccs2)CC1,4498,-11,-16,2,5,-12,-5
COc1ccc(CCNC(=O)c2cccs2)cc1,2868,-3,-25,15,12,0.7,5
Cc1sc2nc(C3CC3)nc(SCC(=O)N3CC(=O)Nc4ccccc43)c2c1C,10986,0,6,0,2,-2.6,16
Cc1cc(C=O)c(C)n1CC1CCCO1 (stereo unspecified),4604,-2,1,/,/,-0.4,7
COc1ccc(-c2noc(CCCC(=O)NC3CCCCC3)n2)cc1,5086,0,-25,3,8,0.1,2
O=C(CSc1nnc(NC(=O)C2CC2)s1)Nc1cccc(F)c1,4559,-5,-17,4,2,5.2,11
CCSc1nc(-c2ccc(OC)cc2)ccc1C#N,4193,-1,-13,2,3,14,11
CCC(C)[C@H](NC(=O)[C@@H]1Cc2ccccc2CN1)C(=O)Nc1ccc2c(c1)OCO2 (stereo partly specified),?,-1,-9,5,1,-2.7,-6
O=C(CNC(=O)c1cccc(F)c1)NN=Cc1cc(Br)ccc1OCc1ccccc1,/,/,/,9,0,-4.7,-3
CC(=NNC(=O)c1ccc(C)s1)c1ccncc1,/,/,/,15,5,3.4,3
COc1ccc(CCNS(=O)(=O)c2ccc(Br)cc2)cc1,4666,-5,-18,14,2,2.1,5
Cc1cc2nc(-c3ccccc3)cc(=O)n2[nH]1,3746,13,-31,1,5,3.6,7
COc1ccc(CN2C(=O)c3cccnc3C2=O)cc1S(=O)(=O)N1CCOc2ccc(Cl)cc21,6205,-23,-1,-6,-8,3.8,13
CCOc1c(CNCCCSc2nc(C)cc(C)n2)cccc1OC,3773,1,-32,16,14,2.3,8
O=C(O)c1ccc(N2C(=O)CC(N3C(=O)/C(=C/c4ccc(Cl)cc4)SC3=S)C2=O)cc1 (stereo unspecified),4108,-1,-30,0,0,5.0,6
Cc1sc(NC(=O)CN2CCCC2)nc1-c1ccc2c(c1)CCN2C(=O)c1ccc(F)cc1,3998,-2,-30,5,7,-2.0,-5
O=S(=O)(c1ccc(Cl)cc1)N1CCN(C2CCN(Cc3ccccc3)CC2)CC1,5743,1,-15,8,7,2.8,1
CCOC(=O)c1nn(-c2ccccc2)c2nnc(Cc3ccc(C)cc3)c(=O)n12,10616,-2,-19,-1,0,7.5,-5
Cc1ccc(OCc2cc(C(=O)NC3CCCCC3)no2)cn1,5509,8,-19,-1,1,2.0,3
Cc1ccc(S(=O)(=O)N2CCCC2C(=O)OCc2nc3ccccc3s2)cc1 (stereo unspecified),3172,-4,-12,-3,-4,-7.0,-9
CCc1ccc(N(C(=O)c2snc(C(N)=O)c2N)C(C(=O)NC2CCCC2)c2ccncc2)cc1 (stereo unspecified),3517,9,-34,5,3,0.6,7
CC(=NNC(=O)CC1N=C(Cc2ccccc2)NNC1=O)c1ccncc1 (stereo unspecified),/,/,/,-8,17,-0.6,-1
C#CCOCCOCCOCCNc1nc(N2CCN(C(=O)[C@H](CCCCN)n3cc([C@@H](N)C(C)CC)nn3)CC2)nc(N2CCN(C(=O)[C@H](Cc3ccc(O)cc3)n3cc([C@@H](N)CC(C)C)nn3)CC2)n1 (stereo partly specified),4206,7,-17,/,/,/,/
OC(CN1CCN(c2ccc(C(F)(F)F)cn2)CC1)c1ccccc1 (stereo unspecified),3855,9,-30,21,-1,3.9,2
O=C(NCCS(=O)(=O)N1CCN(c2cccc(Cl)c2)CC1)C1CCCC1,?,13,-14,6,0,4.0,11
CNC(=S)NNC(=O)c1cc(-c2cccnc2)nc2ccccc12,5691,-2,-15,12,11,0.6,-5
CCN1CCc2c(sc(NC(=S)NC(=O)c3ccccc3)c2C#N)C1,2402,-5,-19,14,13,4.5,17
CCn1c(COc2cccc(OC)c2)nnc1SCC(=O)N1CCOCC1,9504,4,-23,1,8,3.4,-3

# 3 structures from above, sorted by SMILES length, highest first.
SMILES,Bead autofluor,BJeLR viability,PrP UTR inh,Mtb hypoxia inh,Mtb hypoxia inh growth,RN4220 kill,ugtP null kill
CCOC(=O)c1nn(-c2ccccc2)c2nnc(Cc3ccc(C)cc3)c(=O)n12,10616,-2,-19,-1,0,7.5,-5
Cc1sc2nc(C3CC3)nc(SCC(=O)N3CC(=O)Nc4ccccc43)c2c1C,10986,0,6,0,2,-2.6,16
N/C(=N\OC(=O)CCCOc1ccc(Cl)cc1Cl)c1ccncc1,3741,-1,5,11,12,-1.9,2

# Other compounds
SMILES,Bead autofluor,BJeLR viability,PrP UTR inh,Mtb hypoxia inh,Mtb hypoxia inh growth,RN4220 kill,ugtP null kill
Cc1ccc(C(=O)Oc2oc(-c3ccccc3)nc2C=Nc2ccc(N(C)C)cc2)cc1,4188,2,-99,-2,0,3.8,8
O=C(Nc1cc(Cl)cc(Cl)c1)C1CCCC1,4140,3,-37,9,-3,-6.9,18
COc1ccccc1CCNC(=O)C1CCCO1 (stereo unspecified),8056,/,7,-7,8,0.7,-1
COc1cc(CN2CCC(n3nccc3NC(=O)CCCc3ccccc3)CC2)ccc1F,5440,5,-9,-6,12,-1.2,-2
CC(C)(C)c1ccc(OCC(=O)N/N=C/c2ccc(N3CCOCC3)cc2)cc1,2539,6,-3,/,/,/,/
Cc1[nH]n(-c2ccccc2)c(=S)c1C=NCCCN=Cc1c(C)[nH]n(-c2ccccc2)c1=S,2123,11,-25,2,-4,-1.1,6
CC(=O)c1cc(CN2CCC(N3CCC(C(=O)N4CCCC4)CC3)CC2)cs1,5989,-10,2,1,3,-0.6,-2
Cc1nnc(NC(=O)c2ccc3ccccc3c2)o1,3991,/,-2,10,0,9.6,-2
CC(=O)c1ccc(NC(=O)COC(=O)Cn2cnc3ccccc32)cc1,5798,/,-19,12,8,6.1,7
CN(C)c1ncc(S(=O)(=O)c2ccc(Cl)cc2)c(-c2ccccc2)n1,5352,2,-28,13,9,9.7,16
COc1cccc(NC(=S)N2CCC(Cc3ccccc3)CC2)c1,5445,/,-7,5,-2,-3.6,6
COc1ccc(Cl)c2sc(N3CCN(C(=O)c4ccco4)CC3)nc12,5910,-5,-5,5,13,7.4,-10
O=C(COC(=O)CCCSc1nc2ccccc2[nH]1)Nc1ccc(Oc2ccccc2)cc1,2048,-10,-23,9,3,-15,-12
COc1cc(/C=C(/C#N)c2ccccc2F)ccc1OCc1ccccc1,2363,0,-32,10,12,5.9,9
Cc1ccc(-c2ccc(=O)n(CC(=O)NCc3ccc(F)cc3)n2)cc1,4486,3,-27,8,-5,3.2,13
OCC(O)C1OC(Oc2ccccc2)C(O)C(O)C1O (stereo unspecified),4250,/,12,9,5,1.5,1
CN1/C(=C\C=C2C(=O)NC(=O)NC2=O)C(C)(C)c2ccccc21,4654,-3,0,9,13,6.0,7
Cc1ccc(Cl)cc1N1CCN(C(=O)c2cn(C)c(=O)c3c2c2ccccc2n3C)CC1,8426,9,-12,2,3,-7.9,-26
CC1(c2ccc3ccccc3c2)NC(=O)N(CC(=O)N2CCN(Cc3ccccc3)CC2)C1=O (stereo unspecified),?,/,-34,0,0,2.9,6
CCOc1ccc(-n2c(=S)sc3c(=O)n(-c4ccc(F)cc4)c(SCC(=O)O)nc32)cc1,3335,-1,-2,-3,-3,3.9,8
CCOC(=O)C1=C(CNCCc2ccc(Cl)cc2)NC(=O)NC1c1cccc([N+](=O)[O-])c1 (stereo unspecified),3791,-6,-14,-6,0,2.4,14
CC1CCCC(C)N1/N=C/c1cccc([N+](=O)[O-])c1 (stereo unspecified),3793,3,-25,/,/,/,/
COc1ccc(OCC(=O)OC(C)CN2CCOCC2)cc1 (stereo unspecified),4096,-5,-5,/,/,1.6,6
COc1ccc(CNC(=O)CN(C(=O)c2csnn2)c2ccccc2F)cc1,4714,-1,-8,-1,-1,0.6,2
CC(=O)N(c1ccc2oc(=O)sc2c1)S(=O)(=O)c1ccc(C(=O)O)cc1,3638,-11,-17,5,2,1.4,2
Cc1ccc(NC(=S)N2CCC(N(C)CC3CCCO3)CC2)cc1C (stereo unspecified),4676,0,-28,0,-1,-0.6,-8
CCCCN1C(=O)C(NC(=O)c2cccnc2)(C(F)(F)F)C2=C1CC(C)(C)CC2=O (stereo unspecified),23010*,7,-20,8,9,6.9,-6
CCOc1ccc(NC(=O)COc2ccc(S(=O)(=O)N3CCOCC3)cc2)cc1,3864,/,-9,12,10,5.9,6
Cc1cc(NC(=O)c2cc(-c3ccncc3)nc3c(C)cccc23)no1,2678,3,-25,/,/,1.8,-9
Cn1c(SCC(=O)NN=C/C=C/c2ccccc2[N+](=O)[O-])nc2ccccc21,/,/,/,-4,-2,9.5,10
Cc1cccc(C(=O)Nc2onc(C)c2C#N)c1,/,2,-22,0,8,5.2,8
C[C@H]1CN([C@@H](C)CO)C(=O)Cc2cc(NC(=O)CCC(F)(F)F)ccc2O[C@H]1CN(C)S(=O)(=O)c1ccc(F)cc1,3968,/,-27,3,17,-12,-1
Cn1c(=O)n(C)c2cc(NC(=O)C(F)(F)F)ccc21,2086,-3,1,/,/,-3.2,-10
COc1ccc(Cn2c(CCC(=O)NCCC(C)C)nc3ncccc3c2=O)cc1,3066,-5,1,6,0,0.3,13
Cc1ccc(S(=O)(=O)N(CC(=O)N/N=C/c2cccc(Cl)c2)c2cccc3cccnc23)cc1,4784,-8,-12,/,/,/,/
O=C(C1CC(=O)N(C2CCCCC2)C1)N1CCN(c2ccccc2)CC1 (stereo unspecified),4996,-2,-13,3,-3,7.2,15
CN(C)c1ccc(-c2nn3c(-c4ccc(Cl)cc4)nnc3s2)cc1,/,5,-16,-2,13,1.3,-8
Cc1ccc(NC(=O)CN(C)C(=O)c2ccccc2Sc2ccccc2C#N)cc1,5058,3,-33,0,-3,12,-3
CCCCNc1ccc(C(CC(N)=O)NC(=O)Cc2ccc(Br)cc2)cc1[N+](=O)[O-] (stereo unspecified),3497,4,-14,-2,-12,4.3,-2
Cc1cc(C)c(C#N)c(N2CCN(c3ccc(F)cc3)CC2)n1,4474,-5,1,4,0,11,-9
CC(=O)C(=NNc1ccccc1C)N1CCOCC1,/,/,/,-3,-4,4.2,5
COc1ccc([C@H]2C=C(C(=O)O)O[C@@H](OCCCCO)C2)cc1,3049,-14,-12,/,/,/,/
O=C(CSc1nc2ccncc2[nH]1)Nc1ccccc1C(F)(F)F,3125,-5,-11,-10,-5,3.0,3
C=CCn1c(COc2ccc(Cl)cc2)nnc1SCc1ccc(C#N)cc1,9356,0,-3,1,-9,-1.3,-20
CC(C)CC(NC(=O)C(O)C(N)Cc1ccccc1)C(=O)O (stereo unspecified),/,/,/,-13,-3,13,12

# Single records, from the list above. Order of screens: Bead autofluor, BJeLR viability, PrP UTR inh, Mtb hypoxia inh, Mtb hypoxia inh growth, RN4220 kill, ugtP null kill
# CN(C)S(=O)(=O)Nc1cccc(-c2cn3c(n2)SCC3)c1 in the list: 5720, -2, -20, 1, -3, 1.2, 3
# O=C(CSc1nnc(NC(=O)C2CC2)s1)Nc1cccc(F)c1 in the list: 4559, -5, -17, 4, 2, 5.2, 11
# CC(C)CC(NC(=O)C(O)C(N)Cc1ccccc1)C(=O)O (stereo unspecified) in the list: /, /, /, -13, -3, 13, 12
# C=CCn1c(COc2ccc(Cl)cc2)nnc1SCc1ccc(C#N)cc1 in the list: 9356, 0, -3, 1, -9, -1.3, -20
# O=C(CNC(=O)c1cccc(F)c1)NN=Cc1cc(Br)ccc1OCc1ccccc1 in the list: /, /, /, 9, 0, -4.7, -3

# Source: PubChem
